Assay outcomes from PubChem BioAssay.
Beta apoptosis: blocks beta cell apoptosis | 0.8% of 300,000 active | protection from apoptosis, % (no concentration beside the values) | INS-1E cytokine-induced death, ATP luminescence, 48 h; percent of positive-control rescue, neutral wells zero | AID 435005;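 active = all replicates at 75% or more, or half of them and the mean; inconclusive = half reach 75% but not the mean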;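 note: 0% = cytokine-treated negative control wells and 100% = positive control rescue; higher means more ATP so stronger rescue from cytokine killing; wells of about 40 µL received 100 nL stock; the first replicate is given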
T cruzi repl: blocks replication of Trypanosoma cruzi | inhibition, % (concentration not given with the values) | 1.4% of 300,000 active | AID 1885 | T. cruzi beta-gal in NIH3T3, luminescence, 90 h;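 active = mean inhibition across valid replicates above about 55%, limit read from the data; inconclusive = mean below that limit but half or more replicates reach it; inactive = mean below it, under half of replicates reach it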;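 note: signal also drops with host cell toxicity which is not excluded here; 0% = plate median of DMSO wells and 100% = zero luminescence signal; higher percent means less beta-gal luminescence so fewer parasites; stock transfer was 50 nL into about 50 µL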
Calb FLC: affects C. albicans growth with fluconazole | C. albicans CaCi-2 (fluconazole-resistant clinical isolate) + fluconazole, Alamar Blue growth, 48 h | growth inhibition, % (concentration not given with the values) | 0.57% of 300,000 active;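 active = most replicates above 75%; inconclusive = exactly half above 75%; inactive = most below 75%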;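 note: all wells also contain fluconazole at 8 µg/ml as a sub-toxic cotreatment; 0% = median of DMSO wells and 100% = median of geldanamycin control wells; wells of about 8 µL received 7.5 nL stock; the first replicate is given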
Vif A3G: inhibitors of Vif binding to APOBEC3G peptide, primary screen, biochemical, TR-FRET, GST-Vif 1-94, biotin-A3G peptide, dose response retest (AID 1117319). 0.57% of 260,000 active. TR-FRET GST-Vif / biotin-A3G peptide binding; higher % means a stronger effect; test concentration not given here; strong numbers were not always called active. inhibition, %; hits with a dose series show IC50 in µM;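 active = above the screen mean plus three standard deviations and confirmed in dose response; inconclusive = results disagree or hit not tested in dose response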;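 note: Vif residues 1-94 fused to GST binding biotinylated APOBEC3G peptide 110-148; 0% = full assay without inhibitor and 100% = GST in place of GST-Vif; retest series ran down from 100 µM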
MLL AF4-AF9 inh: inhibitors of human MLL-AF4/AF9 interaction; P42568; AlphaScreen, biotin-AF4 peptide binding to FLAG-AF9; inhibition, % at 10 µM; 0.47% of 350,000 active; AID 651704;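 active = every replicate reaching a set inhibition limit, whatever the replicate mean, cut at about 25% in these data; inconclusive = mean inhibition reaches that limit but some replicates miss it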;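 note: 0% = plate neutral control median and 100% = total signal loss; the record names both 10 and 1 µM as test concentration; the first replicate is given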
Target sequence (P42568 whole entry, looked up): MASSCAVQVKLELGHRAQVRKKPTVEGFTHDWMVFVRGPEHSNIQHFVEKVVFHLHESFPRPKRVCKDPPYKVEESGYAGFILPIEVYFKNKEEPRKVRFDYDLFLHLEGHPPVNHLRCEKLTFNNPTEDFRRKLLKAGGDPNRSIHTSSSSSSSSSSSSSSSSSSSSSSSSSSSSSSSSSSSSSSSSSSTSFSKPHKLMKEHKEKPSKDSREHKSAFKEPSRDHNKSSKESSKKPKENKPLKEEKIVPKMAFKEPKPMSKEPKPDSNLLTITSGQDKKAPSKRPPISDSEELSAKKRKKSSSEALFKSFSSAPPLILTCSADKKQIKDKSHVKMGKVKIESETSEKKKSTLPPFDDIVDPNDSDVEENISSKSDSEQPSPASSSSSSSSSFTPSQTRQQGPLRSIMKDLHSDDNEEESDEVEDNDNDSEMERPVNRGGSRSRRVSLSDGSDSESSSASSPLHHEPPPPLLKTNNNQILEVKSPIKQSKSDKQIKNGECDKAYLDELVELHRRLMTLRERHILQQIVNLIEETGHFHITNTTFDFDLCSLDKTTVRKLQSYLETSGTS
RanGTP-Impb inh: inhibitors of RanGTP-importin-beta interaction, primary screen, biochemical, FRET, CFP-Ran, YFP-importin-beta, homogeneous; inhibition, % (concentration not given with the values); 1.1% of 300,000 active; AID 2216; cell-free CFP-Ran/YFP-importin-beta FRET ratio;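 active = most replicates above 15%; inconclusive = exactly half above 15%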;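 note: 0% = DMSO wells and 100% = Ran loaded with GDP instead of GTP; wells of about 40 µL received 100 nL stock; the first replicate is given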
Ecoli rRNA inh: inhibitors of bacterial rRNA selective over humanized ribosomes; 1.6% of 350,000 active; AID 720706; E. coli WT GFP vs humanized-ribosome RFP mutants, fluorescence, 24 h; stronger effect = lower value; DMSO median 0, no signal -100; GFP signal change (wild-type ribosome), % (concentration not given with the values);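 active = significant combined selectivity score with lowered wild-type GFP, culture density cut under 30%, mutant RFP and density less affected; inactive = any of these conditions unmet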; note: one replicate is shown; some compounds called inactive have numbers as strong as hits
Bfl-1 A1 inh: inhibitors of the anti-apoptotic protein A1, read as caspase activation. 0.066% of 330,000 active. MEF A1-2A-BIM cells, Caspase-Glo 3/7 luminescence, 3 h; percent of clofoctol response, vehicle zero. caspase activation, % (concentration not given with the values). AID 2462;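 active = over half of replicate activation scores above 10%, or exactly half above 10 with the replicate mean above 10; inconclusive = replicate mean below 10 yet half the replicates above 10; inactive = over half of replicates below 10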;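 note: wells of about 30 µL received 50 nL stock; many hits fall short of the cut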
Ecoli rRNA inh OD600: second read-out of Ecoli rRNA inh, no call of its own (marks repeat the call); OD600 change, %; measured here: OD600 growth;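 optical density of the mix in the first replicate; 0 = DMSO median and -100 = no signal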
Ecoli rRNA inh RFP: further read-out of Ecoli rRNA inh, marked with its call; RFP signal change, %; measured here: RFP humanized mutant strains;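 first replicate; 0 = DMSO median and -100 = no signal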
The depositor's hits bear a star; u = inconclusive; x = not tested or not shown. A portion of the library (hit frequency here may not be typical).

SMILES	Beta apoptosis	T cruzi repl	Calb FLC	Vif A3G	MLL AF4-AF9 inh	RanGTP-Impb inh	Ecoli rRNA inh	Ecoli rRNA inh OD600	Ecoli rRNA inh RFP	Bfl-1 A1 inh
S=C(Nc1ccc(Nc2ccccc2)cc1)NN1CCOCC1	0	-12	3	21%	6.1	0.5	-8	2	6.4	0.1
FC(F)(F)c1cc(-c2ccco2)nc(N2CCN(c3ccccc3)CC2)n1	4	1	-2	4%	x	-4.2	x	x	x	-1.0
CC(=O)c1c(C(=O)O)[nH]c(C(=O)O)c1C	-7	13	-1	11%	-4.0	u	11	12	0.8	1.3
COc1ccccc1-n1cnc2cc(C(=O)NCCCN3CCOCC3)ccc21	-5	-11	-3	4%	x	-0.9	x	x	x	0.0
CCCN1CNC(=S)N(Cc2ccccc2)C1	-1	-18	-6	5%	x	u	x	x	x	1.7
CCn1cc(C(=O)C(F)(F)F)c2ccccc21	0	-4	1	-7%	x	4.0	x	x	x	-0.3
CCCCn1c(N)c(N(CCOC)C(=O)c2cccc(S(=O)(=O)N3CCCCCC3)c2)c(=O)[nH]c1=O	-3	-2	4	-4%	-2.4	-0.9	8	7	-2.1	-1.7
Cc1ccc2c(CC(=O)O)coc2c1	-2	-1	-2	-1%	-4.0	-0.2	x	x	x	0.3
CCC1(C)N(O)C(C)(C)C(c2ccc(OC)cc2)=[N+]1[O-] (stereo unspecified)	-3	9	3	u	x	5.9	x	x	x	-0.2
CCCCSCCCNC(=O)c1cn(C)c2ccc(S(=O)(=O)N3CCCC3)cc2c1=O	-1	-4	-4	3%	2.6	-0.7	1	5	-0.8	-1.7
COCCCNC(=O)CNC(=S)N(Cc1ccccc1)Cc1cccnc1	0	2	-42	17%	-2.3	-0.5	10	6	-5.0	0.2
COc1ccc(S(=O)(=O)N(C)C)cc1NCC(=O)Nc1ccc(Br)cc1F	0	-10	-11	x	x	3.8	x	x	x	1.6
CCOc1ccc(NC(=O)c2cccnc2Cl)c([N+](=O)[O-])c1	0	-4	6	17%	x	-2.2	x	x	x	-0.9
O=C(NCc1ccccc1CN1CCCC1)c1ccc(OCc2cscn2)cc1	-4	x	x	2%	-2.5	x	21	9	1.3	-1.1
Cc1ccc(C(c2nnnn2CC2CCCO2)N2CCN(C)CC2)cc1 (stereo unspecified)	1	-17	3	72%	-1.3	-1.3	12	11	2.3	-0.4
CCOC(=O)c1c(NC(=O)c2cccc([N+](=O)[O-])c2C(=O)O)sc2c1CCCC2	-1	-4	3	-4%	-2.3	-0.8	-12	-16	-4.2	1.4
O=C(COC(=O)c1c[nH]c2ccccc12)Nc1ccc([N+](=O)[O-])cc1	-1	x	x	x	0.9	x	0	9	0.0	-0.5
Cc1ccc(-c2nnc(SCC(=O)N3CCCc4ccccc43)n2N)cc1	-1	-4	-8	4%	x	4.4	x	x	x	-1.2
O=C(COC(=O)c1ccc(F)cc1)NCCc1ccc(F)cc1	0	-19	3	x	0.3	-1.9	0	5	1.2	-1.3
COc1ccc(Cl)cc1N(C(=O)c1ccco1)C(C(=O)NC1CCCC1)c1ccncc1 (stereo unspecified)	0	-10	5	x	-2.6	1.6	2	-7	-0.2	0.2
Cc1ccc(S(=O)(=O)N(C)C)cc1NC(=O)CN1C(=O)NC(Cc2c[nH]c3ccccc23)C1=O (stereo unspecified)	x	2	5	-12%	u	1.7	3	-6	0.1	x
Cc1nc(N)sc1-c1csc(Nc2cccc(O)c2)n1	-4	-10	0	x	7.8	-3.0	-1	10	0.9	-1.5
Cc1cccc(C(=O)C2CCN(S(=O)(=O)c3ccc(C(=O)O)cc3)CC2)c1	1	-7	-5	-1%	2.0	1.2	-6	-8	1.5	0.5
CC1CCCC(C)N1C(=O)Nc1cccc(Cl)c1 (stereo unspecified)	-2	-4	-16	-5%	x	-2.2	x	x	x	0.0

For reference, two of the compounds above.
SMILES	Beta apoptosis	T cruzi repl	Calb FLC	Vif A3G	MLL AF4-AF9 inh	RanGTP-Impb inh	Ecoli rRNA inh	Ecoli rRNA inh OD600	Ecoli rRNA inh RFP	Bfl-1 A1 inh
O=C(COC(=O)c1c[nH]c2ccccc12)Nc1ccc([N+](=O)[O-])cc1	-1	x	x	x	0.9	x	0	9	0.0	-0.5
Cc1ccc(-c2nnc(SCC(=O)N3CCCc4ccccc43)n2N)cc1	-1	-4	-8	4%	x	4.4	x	x	x	-1.2

(further entries)
SMILES	Beta apoptosis	T cruzi repl	Calb FLC	Vif A3G	MLL AF4-AF9 inh	RanGTP-Impb inh	Ecoli rRNA inh	Ecoli rRNA inh OD600	Ecoli rRNA inh RFP	Bfl-1 A1 inh
COc1ccc(NC(=O)C2C3C=CC4(O3)C2C(=O)N(CCN2CCCCC2)C4C(=O)NC2CCCCC2)cc1 (stereo unspecified)	-2	0	-11	-1%	-1.5	-5.5	1	6	-2.1	-0.3
CC1CC(C)CN(C(=O)C2CCCN(c3ncnc4c3nc3n4CCCCC3)C2)C1 (stereo unspecified)	-11	10	-4	x	-3.0	-0.1	-14	-38	-4.6	0.3
CCOC(=O)CCCCCC(=O)Nc1ccc2c(c1)CC(=O)N([C@@H](C)CO)C[C@H](C)[C@@H](CN(C)C(=O)Nc1ccc3c(c1)OCO3)O2	-1	x	x	x	-10	x	6	4	1.8	0.0
Cc1ccc2c(c1)N(Cc1ccc3c(c1)OCO3)C(=O)C(C)O2 (stereo unspecified)	3	16	-3	3%	6.6	2.5	-37	-46	-8.7	1.0
CCc1ccccc1NC(=O)C1CCN(C(=O)c2ccc([N+](=O)[O-])cc2)CC1	2	-3	20	-6%	1.9	1.1	13	2	-1.2	0.1
COc1cc(OC)cc(C(=O)OCC(=O)NCc2ccco2)c1	-5	x	x	20%	-3.2	x	9	8	0.6	1.3
COC(=O)c1ccccc1NC(=O)COC(=O)/C=C/c1ccco1	-7	-11	0	x	-0.4	-0.3	16	10	7.0	-1.5
CC1CCN(C(=O)c2ccccc2NC(=O)Nc2ccccc2)CC1	1	-12	4	x	-1.1	0.2	-1	3	-0.1	0.2
Cc1[nH]c2ccccc2c1C(=O)CSc1ccc(F)cc1	-2	0	0	-3%	-1.0	-2.7	-3	0	-1.7	1.6
CC(C)Cc1cc(CN2CCCC(CO)(Cc3cccc(Cl)c3)C2)[nH]n1 (stereo unspecified)	7	38	-3	-10%	4.3	-1.5	-40	-72	1.3	0.1
CCOC(=O)c1sc(NC(=O)c2sccc2C)cc1C	19	17	-16	-2%	x	0.4	x	x	x	-7.1
CC(NC(=O)c1ccc(N(C)C)c([N+](=O)[O-])c1)c1ccc(-n2ccnc2)cc1 (stereo unspecified)	1	15	22	x	1.2	1.6	-3	2	0.9	0.8
COc1ccc(C2C=C(c3ccc(Br)s3)Nc3ncnn32)cc1OC (stereo unspecified)	6	-19	5	-30%	x	-179	x	x	x	-0.7
COc1ccc(NS(=O)(=O)c2cccc(C(=O)NN=Cc3ccc(OC)c(O)c3)c2)cc1	-3	x	x	-1%	-1.4	x	-1	4	9.3	0.3
CC(C)=CCN1CCN(Cc2cccn2-c2nccs2)CC1CCO (stereo unspecified)	x	2	-15	3%	8.7	2.1	8	0	-2.3	x
COCC(C)NC(=S)NC(=O)c1cc(S(=O)(=O)N2CCOCC2)ccc1C (stereo unspecified)	-15	-6	-9	x	-0.4	-1.0	6	6	-2.3	0.6
O=C(NCCN1CCOCC1)c1c(Cl)cccc1Cl	-3	-3	4	x	-13	0.9	13	11	0.6	0.5
Cc1nn2c3ccccc3n(C)c2nc1=O	-1	-11	8	19%	x	2.2	x	x	x	0.1
Cn1c(SCC(=O)N2c3ccccc3Sc3ccc(Cl)cc32)nnc1-c1ccco1	6	x	x	20%	u	x	-36	-43	-0.2	1.3
Cc1nc2cccc(C(=O)NCc3ccccc3)c2o1	-11	-15	1	19%	x	-2.6	x	x	x	0.4
CCOc1ccc(OC(=O)C(CCS(C)(=O)=O)N2C(=O)c3ccccc3C2=O)cc1 (stereo unspecified)	-6	-8	-14	-1%	x	0.6	1	-5	-0.7	-0.3

3 entries already listed, arranged by molecular weight, rising:
SMILES	Beta apoptosis	T cruzi repl	Calb FLC	Vif A3G	MLL AF4-AF9 inh	RanGTP-Impb inh	Ecoli rRNA inh	Ecoli rRNA inh OD600	Ecoli rRNA inh RFP	Bfl-1 A1 inh
Cc1nn2c3ccccc3n(C)c2nc1=O	-1	-11	8	19%	x	2.2	x	x	x	0.1
CCOc1ccc(OC(=O)C(CCS(C)(=O)=O)N2C(=O)c3ccccc3C2=O)cc1 (stereo unspecified)	-6	-8	-14	-1%	x	0.6	1	-5	-0.7	-0.3
COc1ccc(NS(=O)(=O)c2cccc(C(=O)NN=Cc3ccc(OC)c(O)c3)c2)cc1	-3	x	x	-1%	-1.4	x	-1	4	9.3	0.3

Looked up by structure from above (3):
SMILES	Beta apoptosis	T cruzi repl	Calb FLC	Vif A3G	MLL AF4-AF9 inh	RanGTP-Impb inh	Ecoli rRNA inh	Ecoli rRNA inh OD600	Ecoli rRNA inh RFP	Bfl-1 A1 inh
CC(C)=CCN1CCN(Cc2cccn2-c2nccs2)CC1CCO (stereo unspecified)	x	2	-15	3%	8.7	2.1	8	0	-2.3	x
Cc1nn2c3ccccc3n(C)c2nc1=O	-1	-11	8	19%	x	2.2	x	x	x	0.1
Cn1c(SCC(=O)N2c3ccccc3Sc3ccc(Cl)cc32)nnc1-c1ccco1	6	x	x	20%	u	x	-36	-43	-0.2	1.3
